MgrA-DNA mod = modulators of Staphylococcus aureus MgrA DNA binding. fluorescence polarization. inhibition, %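 (about 10 µg/mL by stock and volumes)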. 0.13% of 84,000 active;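 active = above 50% in either of two replicates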;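 also: 0% = protein plus DNA without compound and 100% = DNA alone without protein; higher means less MgrA bound to DNA so lower polarization; one replicate is shown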
S aureus helic = S. aureus DNA helicase inhibition; purified S. aureus helicase, fluorescence unwinding assay; about half of the hits fall short of the stated cut; inhibition, %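 (tested at about 80 µM)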; 0.05% of 120,000 active; AID 485395;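 active = both duplicates at 50% or more, or one of them with a favoured structure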;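 also: 0% = mean of negative control wells and 100% = mean of positive control wells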
* = called active by the depositor. An excerpt; rates above refer to the full screens.

Screening CCOc1cccc(NC(=O)C2CC(=O)N(C)C(=Nc3ccc(C(=O)OC)cc3)S2)c1 (stereo unspecified) returned MgrA-DNA mod 0.5.
For Cc1nc2c(c(C)nn2C)c(C)c1CCC(=O)NCc1ccccc1 the results were S aureus helic 11.
For CCc1ccc(NC(=O)CSC2=NC3C(=O)N(C)C(=O)N(C)C3N2C)cc1 (stereo unspecified) the results were S aureus helic 5.
For Clc1ccc(-c2nc(-c3[nH]ncc3Br)no2)cc1 the results were MgrA-DNA mod -1.4.
Screening Nc1nc(SC2c3ccccc3-c3ccccc32)n[nH]1 returned MgrA-DNA mod -2.8.
Screening CCOC(=O)c1cc(C#N)c(Cl)nc1-c1ccccc1 returned MgrA-DNA mod 2.4.
For C1CCN2C[C@@H]3C[C@H](CN4CCCC[C@@H]34)[C@H]2C1 the results were MgrA-DNA mod -4.2.
For N#Cc1cc(C(=O)c2ccccc2O)cn2c1nc1ccccc12 the results were S aureus helic -112.
Screening CN(C)CCNC(=O)c1c(O)c2c(n(C3CC3)c1=O)CCCC2 returned MgrA-DNA mod -3.5 and S aureus helic -1.
For OC(CNc1ccccc1Cl)Cn1nnnc1-c1ccccc1 (stereo unspecified) the results were S aureus helic -21.
CCc1cc2c3c([nH]c2cc1S(=O)(=O)NC(C)CC)CCCC3=O (stereo unspecified) was read as S aureus helic 19.
For O=C(CCc1nc(-c2ccc(Cl)cc2)no1)N1CCCC1 the results were S aureus helic 16.
Cc1cc(NC(c2cccnc2)c2ccc3cccnc3c2O)no1 (stereo unspecified) was read as S aureus helic 9.
For Cc1nn(-c2ccccc2)c2sc(C(=O)N3CCCCC3)cc12 the results were MgrA-DNA mod -1.1 and S aureus helic 1.
`Cc1nn(C)c(Cl)c1C(=O)NCC(=O)O` gave MgrA-DNA mod -0.6.
Screening CCOC(=O)c1sc2nc(C)c(C)c(C)c2c1N returned S aureus helic 16.
`Cc1cccc(-n2ccnc2SCC(=O)NC2CCCCC2)c1` gave MgrA-DNA mod 1.3 and S aureus helic -4.
Screening O=C(O)c1cc2ccc3cccc4ccc(c1)c2c34 returned MgrA-DNA mod -0.2 and S aureus helic 14.
CC1=NN(c2ccc(C)c(C)c2)C(=O)/C1=C/c1ccc(-c2ccc3c(c2)C(=O)NC3=O)o1 was read as S aureus helic -26.
Cc1cccc(N2CCN(CCNC(=O)c3cc4c(s3)CS(=O)(=O)C4)CC2)c1C was read as MgrA-DNA mod -0.9 and S aureus helic 14.

3 records picked at random from those above, as already listed:
For O=C(CCc1nc(-c2ccc(Cl)cc2)no1)N1CCCC1 the results were S aureus helic 16.
`Cc1nn(C)c(Cl)c1C(=O)NCC(=O)O` gave MgrA-DNA mod -0.6.
Screening CCOc1cccc(NC(=O)C2CC(=O)N(C)C(=Nc3ccc(C(=O)OC)cc3)S2)c1 (stereo unspecified) returned MgrA-DNA mod 0.5.

New compounds follow
O=C(O)c1ccc[nH]c1=S was read as MgrA-DNA mod -2.4.
Screening O=C1NC(=O)/C(=C/c2ccc(O)cc2)N1 returned MgrA-DNA mod -1.5.
COc1ccc(NS(=O)(=O)c2cc3c(cc2Cl)NC(=O)CO3)c(OC)c1 was read as S aureus helic 1.
CN1CCC(=NNC(=O)CN(c2ccccc2)S(=O)(=O)c2ccccc2)CC1 was read as MgrA-DNA mod 0.9 and S aureus helic 11.
Screening CCCNC(=O)CSc1n[nH]c(=S)s1 returned S aureus helic -4.
Screening NS(=O)(=O)c1ccc(NC(=O)CN2C(=O)S/C(=C/c3ccccc3)C2=O)cc1 returned MgrA-DNA mod -1.3.
`CN1C(=O)C2(OCC(COc3ccc(Cl)cc3)O2)c2ccccc21` (stereo unspecified) gave MgrA-DNA mod -4.6 and S aureus helic -2.
Cc1ccc(C2=NN3C(=O)c4ccccc4C3C2)cc1 (stereo unspecified) was read as MgrA-DNA mod -4.6.
For CCOc1ccc(C(C)(C)C)cc1S(=O)(=O)Nc1cccnc1 the results were MgrA-DNA mod -2.3 and S aureus helic 16.
`O=C(NC1CCCCC1)c1ccc2nsnc2c1` gave S aureus helic 5.
For Cc1onc(-c2ccccc2)c1C(=O)N=S(C)(C)=O the results were S aureus helic 24.
COc1cc(C(=O)Nc2ccc(O)c(-c3nc4cc(C)ccc4o3)c2)ccc1OCc1ccc(Cl)cc1 was read as MgrA-DNA mod 1.4.
For CCC(C)c1ccc(NC(=O)COC(=O)C2CCC2)cc1 (stereo unspecified) the results were MgrA-DNA mod 1.6 and S aureus helic -11.
CCOC(=O)c1cc(-c2ccccc2)sc1NC(=O)C(C)N1CCN(C(=O)c2ccco2)CC1 (stereo unspecified) was read as S aureus helic -3.
For COc1ccc(/C=C2/SC(=Nc3ccccc3)NC2=O)cc1Br the results were MgrA-DNA mod -1.5.
`Cc1ccc2[nH]c3c(=O)n(CC(=O)Nc4cccnc4)ncc3c2c1` gave S aureus helic 0.
Screening C=CCc1cc(C)ccc1OCC(O)Cn1cnc2ccccc21 (stereo unspecified) returned S aureus helic -16.
COc1nc(C)c(/C=C/C(=O)N(C(=O)NC2CCCCC2)C2CCCCC2)c(OC)n1 was read as MgrA-DNA mod -2.0 and S aureus helic 12.
Screening O=C(OCc1nnc(-c2ccccc2Br)o1)c1ccc2[nH]c3c(c2c1)CCCC3 returned S aureus helic -4.
Cc1cccc(OCc2nnc(SC(C)C(=O)O)n2Cc2ccccc2)c1 (stereo unspecified) was read as MgrA-DNA mod -0.6 and S aureus helic -2.
Screening COc1ccc(N2CCN(c3cc(O)c4ccccc4c3O)CC2)cc1 returned S aureus helic -8.
`COc1ccc2cc(CCNC(=O)c3cccc(C(F)(F)F)c3)c(=O)[nH]c2c1` gave S aureus helic -15.
Screening Cc1cc(C)n2nc(C(=O)N(C)CC(=O)Nc3ccc(Cl)c(C(F)(F)F)c3)nc2n1 returned S aureus helic 6.
Screening COc1cc2nc(C)[nH]c2cc1OC returned MgrA-DNA mod 1.1 and S aureus helic 12.
For CCCCC[C@H](O)/C=C/[C@@H]1[C@@H](C/C=C\CCCC(=O)O)[C@@H](O)C[C@H]1O the results were MgrA-DNA mod -0.3.
`N#CC1=C2C=CC=CN2/C(=C\c2cn(-c3ccccc3)nc2-c2cccs2)C1=O` gave S aureus helic 11.
`O=C(CCN1CCN(c2ccccc2)CC1)Nc1nccs1` gave MgrA-DNA mod -0.2 and S aureus helic -1.
`CCOC(=O)c1c(C)nc2sccn12` gave S aureus helic 5.
CCc1ccccc1Nc1nc(-c2c(C)nc3sccn23)cs1 was read as MgrA-DNA mod 1.6 and S aureus helic -7.
Cc1cc(NC(=O)c2ccc(Cl)cc2)no1 was read as MgrA-DNA mod -12.
Cc1ccc(S(=O)(=O)CCc2nc3ccccc3n2CCC#N)cc1 was read as MgrA-DNA mod 1.4 and S aureus helic -11.
CCOC(=O)CNC(=O)c1ccccc1 was read as MgrA-DNA mod -2.0.
CCOC(=O)c1ccsc1NC(=O)CSc1ccccc1 was read as S aureus helic 5.
O=C(NCCc1ccccn1)C1CC(=O)N(Cc2ccccc2Cl)C1 (stereo unspecified) was read as S aureus helic -5.
Screening O=C(Sc1cccc2cccnc12)c1ccccc1Cl returned MgrA-DNA mod 5.8 and S aureus helic 4.
Screening CCC(CC)C(=O)NCc1ccccc1 returned MgrA-DNA mod 0.2 and S aureus helic 12.
CCN1CCCC1CNC(=O)CCCN1C(=O)CCn2nc(C)cc21 (stereo unspecified) was read as S aureus helic 2.
Screening COC(=O)c1c(NC(=O)c2ccoc2C)sc2c1CCCCC2 returned MgrA-DNA mod 15 and S aureus helic 1.
For COCCN=c1scc(-c2cccs2)n1/N=C/c1ccc(N2CCOCC2)cc1 the results were S aureus helic -9.
Screening N#CC1(NC(=O)COC(=O)CSc2nc3ccccc3o2)CCCCC1 returned S aureus helic -4.

Sorted by heavy-atom count (ascending): some entries from above.
CCOC(=O)c1ccsc1NC(=O)CSc1ccccc1 was read as S aureus helic 5.
`O=C(CCN1CCN(c2ccccc2)CC1)Nc1nccs1` gave MgrA-DNA mod -0.2 and S aureus helic -1.
Screening COC(=O)c1c(NC(=O)c2ccoc2C)sc2c1CCCCC2 returned MgrA-DNA mod 15 and S aureus helic 1.
For CCCCC[C@H](O)/C=C/[C@@H]1[C@@H](C/C=C\CCCC(=O)O)[C@@H](O)C[C@H]1O the results were MgrA-DNA mod -0.3.
Screening COc1ccc(N2CCN(c3cc(O)c4ccccc4c3O)CC2)cc1 returned S aureus helic -8.
`COc1ccc2cc(CCNC(=O)c3cccc(C(F)(F)F)c3)c(=O)[nH]c2c1` gave S aureus helic -15.
`N#CC1=C2C=CC=CN2/C(=C\c2cn(-c3ccccc3)nc2-c2cccs2)C1=O` gave S aureus helic 11.

(cont.)
Screening COc1ccc(/C=C/C(=O)Nc2ccccc2N2CCCCC2)cc1OC returned MgrA-DNA mod -1.7 and S aureus helic -12.
CSc1ccc(Cl)c(C(=O)OCC(=O)N2CCc3ccccc3C2)c1 was read as MgrA-DNA mod 0.6 and S aureus helic -19.
`Cc1[nH]c2ccccc2c1C(=O)CN1c2ccccc2CC1C` (stereo unspecified) gave S aureus helic -13.
For Cn1cc(C(CC(=O)O)C(=O)O)c2ccccc21 (stereo unspecified) the results were MgrA-DNA mod -0.7 and S aureus helic 16.
`CC(C)N(Cc1ccc(N(C)C)cc1)S(=O)(=O)c1ccc(F)cc1` gave MgrA-DNA mod -1.1.
For Cc1cccc(C(=O)NCC(c2ccccc2)N(C)C)c1 (stereo unspecified) the results were S aureus helic -4.
For Cc1oc2c(F)c(F)c(F)c(F)c2c1S(=O)(=O)Nc1cccc(C(F)(F)F)c1 the results were S aureus helic 3.
`Cc1cc(C)cc(NC(=O)[C@@H](NC(=O)c2ccco2)C(C)C)c1` gave S aureus helic 3.
`CC(Sc1nc(-c2ccccc2)cc(C(F)(F)F)n1)C(N)=O` (stereo unspecified) gave MgrA-DNA mod 3.8 and S aureus helic -17.
Screening COc1ccc(-c2noc(N(C)CC(=O)N3CCN(c4ccccc4OC)CC3)n2)cc1 returned MgrA-DNA mod 0.5 and S aureus helic 5.
`COc1ccc(C(=O)Cc2ccccc2)cc1OC` gave MgrA-DNA mod -1.6.
`CCOC(=O)C1CCN(c2ncnc3scc(-c4ccccc4)c23)CC1` gave MgrA-DNA mod 0.8.
CCCCCCCC1N[C@H](C(=O)O)CS1 (stereo partly specified) was read as S aureus helic -8.
For COc1cc(/C=C2/SC(=Nc3ccccc3)NC2=O)ccc1OCC#N the results were MgrA-DNA mod 0.5.
For CC1CN(S(=O)(=O)c2ccccc2)C(C)N1C(=O)N1CCOCC1 (stereo unspecified) the results were MgrA-DNA mod 3.8 and S aureus helic -6.
Cc1ccc(NC(=S)Nc2ccccc2C(=O)Nc2ccc(F)cc2)c(Cl)c1 was read as MgrA-DNA mod -0.1.
For O=C(CN(Cc1ccc2c(c1)OCO2)C(=O)CSc1nc2ccccc2o1)NC1CCCCC1 the results were MgrA-DNA mod 1.8 and S aureus helic 3.
`COc1cc(S(C)=O)ccc1-c1nc2ncccc2[nH]1` (stereo unspecified) gave MgrA-DNA mod 5.2.
Screening CC1CC(C)CN(S(=O)(=O)c2ccc(C(=O)NCc3ccco3)cc2)C1 (stereo unspecified) returned S aureus helic -12.
For CC(=O)N1CCC(C(=O)O)CC1 the results were MgrA-DNA mod 0.2.

Among those listed so far, 6 have a cyano group:
Screening CCOC(=O)c1cc(C#N)c(Cl)nc1-c1ccccc1 returned MgrA-DNA mod 2.4.
For N#Cc1cc(C(=O)c2ccccc2O)cn2c1nc1ccccc12 the results were S aureus helic -112.
`N#CC1=C2C=CC=CN2/C(=C\c2cn(-c3ccccc3)nc2-c2cccs2)C1=O` gave S aureus helic 11.
Cc1ccc(S(=O)(=O)CCc2nc3ccccc3n2CCC#N)cc1 was read as MgrA-DNA mod 1.4 and S aureus helic -11.
Screening N#CC1(NC(=O)COC(=O)CSc2nc3ccccc3o2)CCCCC1 returned S aureus helic -4.
For COc1cc(/C=C2/SC(=Nc3ccccc3)NC2=O)ccc1OCC#N the results were MgrA-DNA mod 0.5.

Next section:
Screening N#Cc1sc2nc3ccccc3n2c1N returned S aureus helic -21.
`CCc1ccccc1NC(=O)c1cc2cc3ccc(OC)cc3nc2o1` gave S aureus helic 1.
`Cc1ccc(S(=O)(=O)/N=C(\c2ccccc2)N2CCCC2)cc1` gave MgrA-DNA mod -1.0 and S aureus helic 8.
`O=Nc1cc(CN2CCCCC2)c(O)c2ncccc12` gave S aureus helic -53.
Cc1ccc(S(=O)(=O)NCCC(=O)N2CCOCCOCCOCC2)cc1 was read as MgrA-DNA mod 1.1 and S aureus helic 21.
For Cc1c(Cl)cccc1NC(=S)N(Cc1ccco1)C(C)c1ccccn1 (stereo unspecified) the results were S aureus helic 5.
`Brc1cc2c(cc1CSc1nnc(-c3c[nH]c4ccccc34)o1)OCO2` gave S aureus helic -8.
For COc1ccc(Nc2ncc(C#N)c(N)n2)c(OC)c1 the results were MgrA-DNA mod -1.3.
`Cc1cccc(OCc2nnc(SCC(N)=O)o2)c1` gave MgrA-DNA mod -0.2 and S aureus helic 1.
`CCOC(=O)Cn1c(=O)oc2cc(S(=O)(=O)N(C)Cc3ccccc3)ccc21` gave S aureus helic -1.
Screening Cc1nc2nc(SCC(=O)Nc3ccccc3C(F)(F)F)nn2c(C)c1Cc1ccccc1 returned MgrA-DNA mod 1.3 and S aureus helic 6.
O=C(Cn1cncn1)N/N=C/c1ccccn1 was read as S aureus helic -5.
For CCCC(C)C(=O)Nc1ccc(OC)cc1 (stereo unspecified) the results were MgrA-DNA mod 0.3 and S aureus helic -1.
For CSc1cccc(NC(=S)N2CCCCC2CCN2CCOCC2)c1 (stereo unspecified) the results were MgrA-DNA mod 0.5.
Cc1cccc(C(=O)NC(C)C(=O)Nc2ccnn2C2CCCC2)c1 (stereo unspecified) was read as S aureus helic -19.
`N#CCC(=O)N(c1nccs1)C1CCCCC1` gave S aureus helic 3.
For O=C(c1cccc(N2C(=O)C3CC=CCC3C2=O)c1)N1CCCCCC1 (stereo unspecified) the results were S aureus helic -19.

Compound activity deposited in PubChem BioAssay by ICCB-Longwood Screening Facility, Harvard Medical School.
